# Screens deposited in PubChem by ICCB-Longwood Screening Facility, Harvard Medical School.
# AID504770: growth inhibition of E. coli YBA685, primary screen, V. cholerae RctB inhibitors. E. coli YBA685 rctB-dependent plasmid, OD600 growth, 3 h; stronger effect = lower value. z-score (concentration not given with the values). actives 0.27% (n = 130,000);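 active = z-score under -2 on both plates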;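 note: wells of about 30 µL received 100 nL stock; score is relative to mean and SD of the test wells; the first replicate is given; strong numbers were not always called active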
# CapD inh: Bacillus anthracis CapD inhibitors, primary screen, biochemical, fluorescence intensity; CapD gamma-glutamyltranspeptidase (Bacillus anthracis Ames Ancestor); purified CapD enzyme, fluorescence intensity read-out; stronger effect = lower value; some hits fall short of the stated cut; z-score (concentration not given with the values); actives 0.23% (n = 140,000); AID 492967, 2010;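 active = z-score under -4 in either of two replicates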;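 note: stock transfer was 100 nL into about 40 µL; score is relative to mean and spread of the plate; one replicate is shown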
# Starred values were filed as active, the others as inactive; . = not tested or not shown; & = joins results of further samples. A portion of the library; rates above refer to the full screens.
SMILES,AID504770,CapD inh
CC(C(=O)Nc1ccc(F)cc1Cl)N(C)CC1COc2ccccc2O1 (centres undefined),-0.3,.
COC(=O)c1[nH]c2ccc(C)cc2c1NC(=O)CN1CCOCC1,.,25.7
Fc1cc(F)c2c(c1)C1C=CCC1C(c1cccnc1)N2 (centres undefined),-0.5,0.22
CC(C)CCNC(=O)C1CCN(Cc2cccc(OCc3ccccc3)c2)CC1,-0.6,0.85
O=C1NC(=S)NC(=O)C1=Cc1cccc(O)c1Cl,-1.35,-1.32
CCOC(=O)c1c(NC(=O)c2cc(S(N)(=O)=O)c(Cl)cc2Cl)sc(C(=O)N(CC)CC)c1C,.,-0.08
C/C(=C(/C#N)P(=NN=Nc1ccccc1)(N1CCOCC1)N1CCOCC1)N1CCCC1,-2.1,.
CCOC(=O)C1=C(C)N=c2s/c(=C/c3ccc(OC(C)=O)cc3)c(=O)n2C1c1ccccc1Cl (centres undefined),.,0.02
CN(C)c1nc(C(=O)Nc2ccccc2)nc(N(C)C)n1,-1.25,-0.085
O=C(Nc1cc(Oc2ccc(F)cc2)cc(Oc2ccc(F)cc2)c1)c1sc2ccccc2c1Cl,.,0.065
O=P1(c2ccccc2)C=Cn2c1cc1c2CCCC1 (centres undefined),0.15,.
Cc1ccc(CN(C)CC(=O)NC(C)C23CC4CC(CC(C4)C2)C3)o1 (centres undefined),-0.05,.

# Brought forward from above: three compounds, then new ones.
SMILES,AID504770,CapD inh
O=C(Nc1cc(Oc2ccc(F)cc2)cc(Oc2ccc(F)cc2)c1)c1sc2ccccc2c1Cl,.,0.065
O=P1(c2ccccc2)C=Cn2c1cc1c2CCCC1 (centres undefined),0.15,.
Cc1ccc(CN(C)CC(=O)NC(C)C23CC4CC(CC(C4)C2)C3)o1 (centres undefined),-0.05,.
COc1ccc(Nc2cccc(Cl)c2)c(C(=O)O)c1,-0.75,-0.91
O=S(=O)(c1ccc(-n2nnc3ccccc32)nc1)N1CCCCC1,1.55,.
CCNc1nc2n(c(=O)n1)CCN2CC,-0.1,.
CCS(=O)(=O)c1nc(S(=O)(=O)c2ccc(Cl)cc2)c(NCC2CCCO2)s1 (centres undefined),0.15,-0.355
Cc1ccc(NC(=O)NCCCN2CCC(N3CCCCC3)CC2)cc1C,0.65,-0.575
FC(F)(F)c1ccc(NC(=S)N2CCn3cccc3C2c2cccs2)cc1 (centres undefined),-0.8,14.1
O=C(O)CCN1C(=O)/C(=C/c2ccco2)SC1=S,.,-6.08*
Cc1cc(C)nc(NS(=O)(=O)c2ccc(NC(=O)C3(c4ccccc4)CCCC3)cc2)n1,.,0.89
OC(CNC1CCCC1)COc1ccc(OCC(O)CNC2CCCC2)cc1 (centres undefined),-0.65,0.205
CC1CCCCN1C(=O)c1ccc(N)cc1 (centres undefined),0.6,0.27
COC(=O)C1CCN(C(=O)C2c3ccccc3Oc3ccccc32)CC1,-0.6,0.39
CCOCCOC(=O)C1=C(C)NC2=C(C(=O)CC(c3ccc(Cl)cc3)C2)C1c1ccc2c(c1)OCO2 (centres undefined),.,29
C(=Nc1ccc2nc(-c3ccccc3)[nH]c2c1)c1ccccc1,0.15,37.1
O=C(Nc1ccc(Br)cc1)c1ccc2c3c(onc13)-c1ccccc1C2=O,-0.55,.
COc1ccc(N2CCN(C(=O)OCC3CCCCN3Cc3ccc(Cl)c([N+](=O)[O-])c3)CC2C)cc1 (centres undefined),.,0.765
O=C1c2ccccc2NC2(C(=O)N(Cc3ccccc3Cl)c3ccccc32)N1Cc1ccccc1 (centres undefined),.,4.23
CC1=CC(=C2C(=O)NC(=O)NC2=O)C=C(C)N1CCN1CCOCC1,-0.1,.
NC(=O)C1CCN(C(=O)c2ccc3c(=O)n(Cc4ccco4)c(SCc4ccc([N+](=O)[O-])cc4)nc3c2)CC1,.,-1.68
O=C(Nc1ccccc1Cl)C1(c2ccccc2)CCOCC1,0.2,0.075
CC(NC(=O)CSc1nc(N)cc(N)n1)C12CC3CC(CC(C3)C1)C2 (centres undefined),0.45,.
CC1CCCCN1S(=O)(=O)c1ccc(F)c(C(=O)Nc2cccc(Cl)c2Cl)c1 (centres undefined),.,-0.055
Cc1c(C)c(C)c(CSc2ccccn2)c(C)c1C,-1.05,-0.355
CN1C2CCC1CC(OC(=O)c1ccccc1)C2 (centres undefined),-0.45,0.35
Nc1ccc2c3c(cccc13)C(=O)C=C2,1.8,-0.345
Cc1ccc(NNC(=S)NCC2CCCO2)c(C)c1 (centres undefined),-1.4,.
Cc1ccccc1Cn1c(-c2ccc(=O)[nH]c2)nc2cc(Cl)c(Cl)cc21,.,1.43
NNC(=O)c1cccc(COc2ccc(C3SCCS3)cc2)c1,-1.05,9.48
COC(=O)c1sc(OC)cc1OC(=O)c1ccco1,-0.55,-0.01
CC1=C(C(=O)OCc2ccc3c(c2)OCO3)C(c2cccc([N+](=O)[O-])c2)NC(=O)N1 (centres undefined),.,0.825
COc1ccccc1CC1(C)NC(=O)N(CC(=O)c2ccc3c(c2)OCO3)C1=O (centres undefined),0.75,.
CO/N=C(/CSc1ccc(Br)cc1)c1ccc(OC)cc1,.,0.875
CCCC(=O)Nn1cnc2c(c1=O)C1(CCCC1)Cc1ccccc1-2,1.8,8.23
CCCc1ccc(OCCNC(=O)c2ccco2)cc1,-1.05,0.53
N/C(Cc1ccc(Cl)cc1)=N\O,-1.3,0.33
CC1CCC(NC(=O)CCCn2c3ccccc3c3cn[nH]c(=O)c32)CC1 (centres undefined),-0.4,16.4
O=C(Nc1cccc(S(=O)(=O)c2cccc(NC(=O)c3ccco3)c2)c1)c1ccco1,3.85,.
COc1cc(C2Nc3ccc(Br)cc3C(c3ccccc3)O2)cc(Br)c1OC (centres undefined),.,0.56
CCOC(=O)c1c(C)nn(C)c1C,2.4,0.03
CCc1ccc(Nc2nnc(Cc3ccc(OC)cc3)c(=O)[nH]2)cc1,0.2,0.07
N#Cc1ccc(CSc2nnc(-c3ccco3)n2-c2ccccc2)cc1,.,-0.31
CC(C)c1ccc2[nH]c(O)c(N=NC(=O)c3ccccc3O)c2c1,-0.45,.
Cn1c(CNc2ccc(F)cc2)nc2ccccc21,-0.4,0.53
CC1CN(C(=O)/C=C/c2ccco2)C(C)CN1C(=O)/C=C/c1ccco1 (centres undefined),0.05,-3.4
CCN1C(=O)c2ccc(C(=O)NCC(C)C)cc2C1=O,-1.3,-0.225
O=C1C2C(c3ccccc3Cl)OC3(C(=O)c4ccccc4C3=O)C2C(=O)N1c1cccc(C(F)(F)F)c1 (centres undefined),.,0.71
CC(C)CCNC(=O)C1CCN(c2nnc(-n3cccc3)s2)CC1,0.8,0.28
COc1ccc2c(c1)C1(Nc3ccccc3-c3nc4ccccc4n31)C(=O)N2C (centres undefined),0,5.27
c1ccc(CNCCSc2nnnn2-c2ccccc2)cc1,-0.4,-0.18
CCOC(=O)c1cc(C(=O)OCC)c2nnc(-c3ccc(Cl)cc3)n2c1N,.,0.145
Cc1cccc(C(=O)OC(C)c2nnc(-c3ccccc3)o2)c1O (centres undefined),-0.1,.
C=CCN(C(=O)c1sc2nc(CSC)[nH]c(=O)c2c1C)c1nc2c(s1)CCCC2,-0.1,.
CCOc1ccc(NC(=O)c2ccc(N3CC4CC(C3)c3cccc(=O)n3C4)c(NC(=O)c3c(F)cccc3F)c2)cc1 (centres undefined),.,-1.27
Cc1ccccc1Nc1nc(N)nc(Cn2cnc3sc4c(c3c2=O)CCC4)n1,-0.55,.
O=C(N[C@@H]1C[C@H]2CC[C@@H]1C2)c1ccc(CSc2ccccc2)cc1,0.55,0.255
CCOC(=O)C1=C(C)NC(C)=C(C(=O)OCC)C1c1cn(-c2ccccc2)nc1-c1ccc([N+](=O)[O-])cc1,.,-1.03
N#Cc1nnn2c1nc(N)c1c(F)cccc12,0.05,35.5
CC(Cc1ccccc1)NC(=O)c1cnc[nH]1 (centres undefined),-0.2,0.38
CCN(CC1COc2ccccc2O1)C(=O)c1cccc(N(C)C)c1 (centres undefined),-0.25,.
COc1ccccc1-c1noc(CCC(=O)O)n1,-0.2,.
CCCCOc1ccc(OCCCN2CCOCC2)cc1,-0.05,0.29&-0.235

# (continued)
SMILES,AID504770,CapD inh
CCCCC(=O)Nc1c(-c2ccccc2)nc2cc(C)ccn12,.,65.9
O=C(OCC(=O)N1CCCc2ccccc21)c1cc(S(=O)(=O)N2CCOCC2)ccc1O,0.05,.
Oc1cccc(C(c2ccc3cccnc3c2O)N2CCCC2)c1 (centres undefined),0.95,.
C=CC(=O)Nc1sc2c(c1C(=O)OCC)CCCC2,0.1,0.345
Cc1oc(-c2ccccc2)nc1CC(=O)N(C)CCCN1c2ccccc2CCc2ccccc21,.,-0.86
CSc1scc2c1-c1nn(C(C)=O)cc1CC2,0.5,1.82
COc1ccccc1CNC(=O)c1ccc([N+](=O)[O-])c(-c2cnn(C(C)C)c2)c1,.,-0.32
O=C(OCc1ccccc1Cl)c1cccnc1Cl,0.55,.
COc1cc(O)c(/C=N/NC(=O)CC2Sc3ccccc3NC2=O)c(OC)c1 (centres undefined),.,0.1
Cc1ccccc1Oc1ccc(S(=O)(=O)N2CC(C)OC(C)C2)cc1 (centres undefined),0.7,-0.57
Cc1csc(SC(C)C(=O)N2CCCc3ccccc32)n1 (centres undefined),-0.05,.
COC(=O)c1sc2cc(NC(=S)Nc3ccn(C)n3)ccc2c1Cl,1.8,0.515
CSc1ccccc1C(=O)OCC(=O)Nc1ccc2[nH]c(=O)[nH]c2c1,0.15,.
COC(=O)c1ccc(OC)c(CN2CCN(Cc3ccc(C)cc3)S2(=O)=O)c1,-1.95,0.495
O=C(CCN1C(=O)C2C3C=CC(C3)C2C1=O)N1CC2CC(C1)c1cccc(=O)n1C2 (centres undefined),.,-0.755
CCn1c(=O)c2ccccc2n(CC(=O)c2ccc(C)cc2)c1=O,-0.25,.
CC1(C)CC2(CC(C)(c3csc(N)n3)OC2=O)C(=O)O1 (centres undefined),.,-0.105
c1ccc(-c2nnc(-c3csc(-c4cccnc4)n3)o2)cc1,-0.35,0.35
Ic1ccc(Nc2nc3nonc3nc2N2CCCCC2)cc1,1.95,-0.175
Cc1oc(C(C)(C)C)cc1C(=O)Nc1ccc(C(F)(F)F)c(C#N)c1,0.2,0.695
Cc1noc(C)c1CSc1ncccc1C(=O)NC1CCCc2ccccc21 (centres undefined),0.7,.
Cc1cc(C(=O)n2cc(C)c(-c3cccs3)n2)c(C)o1,-1.25,0.365
CN(Cc1ccccc1)C(=O)C1CCCN1S(=O)(=O)c1ccc(Cl)cc1 (centres undefined),0.1,-0.63
Cc1cc(C)cc(N/C(N)=N\c2nc(C)cc(C)n2)c1,-0.1,-0.06

# One compound at a time, from the list above.
# CC1(C)CC2(CC(C)(c3csc(N)n3)OC2=O)C(=O)O1 (centres undefined) across the screens: AID504770: .; CapD inh: -0.105
# Cc1oc(C(C)(C)C)cc1C(=O)Nc1ccc(C(F)(F)F)c(C#N)c1 across the screens: AID504770: 0.2; CapD inh: 0.695
# CN(Cc1ccccc1)C(=O)C1CCCN1S(=O)(=O)c1ccc(Cl)cc1 (centres undefined) across the screens: AID504770: 0.1; CapD inh: -0.63

# Carrying on:
SMILES,AID504770,CapD inh
COc1ccc(C(=O)OC(COc2ccccc2)Cn2ccnc2)cc1 (centres undefined),-0.5,-0.32
C[C@H](NC(=O)c1ccc(Br)cc1)C(=O)O,-0.95,.
COc1ccc(OC)c(S(=O)(=O)c2ccc(Br)cc2)c1,-1.25,4.08
Cc1ccc(S(=O)(=O)N(CC(O)CN2CCCC2)c2cccc(C)c2)cc1 (centres undefined),.,-0.645
O=c1c2ccccc2nc(SCc2c(F)cccc2F)n1Cc1ccccc1,-0.15,0.515
CC(=O)NC(C)Cc1c[nH]c2ccccc12 (centres undefined),2.7,-0.745
COc1ccc(CN2CCNCC2)c(OC)c1OC,.,-0.995
CC(C)Nc1nccs1,-1.45,.
Oc1[nH]c2ccccc2c1C=Nc1ccc2c(c1)CCC2,1,-0.275
CC(C)(C)NC(=O)CSc1n[nH]c(-c2cccs2)n1,0.75,.
O=C1CCCC/C1=C/Nc1nc(-c2ccccc2)cs1,-0.05,.
COc1ccc([C@@H]2[C@@H](C(=O)c3ccc(C)cc3C)N3c4ccccc4C=C[C@@H]3C2(C#N)C#N)cc1OC,.,-0.02

# 2 entries from above, with bars between the fields.
compound | AID504770 | CapD inh
CC(C)Nc1nccs1 | -1.45 | .
CC(=O)NC(C)Cc1c[nH]c2ccccc12 (centres undefined) | 2.7 | -0.745

# (continued)
SMILES,AID504770,CapD inh
O=C(O)CC1(CC(=O)N2CCCC2)CCCCC1,0.05,.
O=c1[nH]n(CCO)c(=O)c2ccccc12,-0.2,0.325
N#Cc1ccc(NC(=O)[C@@H]2CCCN2C(=O)c2cccs2)cc1,-0.6,.
Cc1ccc(NS(=O)(=O)c2ccc(CN3C(=O)c4cccnc4C3=O)s2)nc1,0.05,10.4
CCCc1[nH]n(-c2ccc(F)cc2)c(=O)c1C=NCCN1CCOCC1,.,-0.805
Cn1c(SCc2nc3ccccc3c(=O)n2-c2ccccc2)nc2ccccc21,.,-0.075
COc1ccc(-c2nc(NC(=O)C3CC3)sc2C)cc1,1.75,-0.75
O=C(Cn1c(-c2cccs2)cc2ccccc21)NCCc1ccccc1,-0.8,45.5
CC(C)CCNc1nccn(-c2ccc(Cl)cc2)c1=O,0.2,7.5
O=C(O)c1cc(C(=O)O)c(=O)[nH]c1-c1cccc(C(F)(F)F)c1,.,-0.225
